# Vif A3G: HIV-1 Vif–A3G interaction blockers – biochemical, TR-FRET, GST-Vif 1-94, biotin-A3G peptide, dose response retest, primary screen (AID 1117319) | inhibition, %, or IC50 in µM where a hit was titrated | actives 0.57% (n = 260,000) | TR-FRET GST-Vif / biotin-A3G peptide binding; higher % means a stronger effect; test concentration not given here; strong numbers were not always called active;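 active means above the screen mean plus three standard deviations and confirmed in dose response; inconclusive means results disagree or hit not tested in dose response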;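 further: Vif residues 1-94 fused to GST binding biotinylated APOBEC3G peptide 110-148; 0% = full assay without inhibitor and 100% = GST in place of GST-Vif; retest series ran down from 100 µM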
# ALR H2O2 inh: blocks human ALR sulfhydryl oxidase activity; purified ALR, DTT oxidation, H2O2 HRP-luminol luminescence; actives 3.8% (n = 290,000); inhibition, % (no concentration beside the values);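 active means mean and each replicate at 75% or more; inconclusive means only one of the two met; inactive means neither met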;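 further: stock transfer was 7.5 nL into about 7.5 µL; 0% = neutral wells and 100% = wells with inactivated enzyme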
# LANA-H2A inh: blocks KSHV LANA binding to histone H2A/H2B; actives 0.6% (n = 320,000); Q9QR71; inhibition, % (concentration not given with the values); cell-free LANA-H2A/H2B peptide, fluorescence polarization; in the data active means inhibition mostly above about 10%, no sharp cut-off; inactive means mostly below about 6.7%;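 further: stock transfer was 7.5 nL into about 10 µL; 0% = median of vehicle wells and 100% = median of positive control wells; one replicate is shown; the record names a cut of 25% in any replicate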
# Target sequence (Q9QR71 whole entry, looked up): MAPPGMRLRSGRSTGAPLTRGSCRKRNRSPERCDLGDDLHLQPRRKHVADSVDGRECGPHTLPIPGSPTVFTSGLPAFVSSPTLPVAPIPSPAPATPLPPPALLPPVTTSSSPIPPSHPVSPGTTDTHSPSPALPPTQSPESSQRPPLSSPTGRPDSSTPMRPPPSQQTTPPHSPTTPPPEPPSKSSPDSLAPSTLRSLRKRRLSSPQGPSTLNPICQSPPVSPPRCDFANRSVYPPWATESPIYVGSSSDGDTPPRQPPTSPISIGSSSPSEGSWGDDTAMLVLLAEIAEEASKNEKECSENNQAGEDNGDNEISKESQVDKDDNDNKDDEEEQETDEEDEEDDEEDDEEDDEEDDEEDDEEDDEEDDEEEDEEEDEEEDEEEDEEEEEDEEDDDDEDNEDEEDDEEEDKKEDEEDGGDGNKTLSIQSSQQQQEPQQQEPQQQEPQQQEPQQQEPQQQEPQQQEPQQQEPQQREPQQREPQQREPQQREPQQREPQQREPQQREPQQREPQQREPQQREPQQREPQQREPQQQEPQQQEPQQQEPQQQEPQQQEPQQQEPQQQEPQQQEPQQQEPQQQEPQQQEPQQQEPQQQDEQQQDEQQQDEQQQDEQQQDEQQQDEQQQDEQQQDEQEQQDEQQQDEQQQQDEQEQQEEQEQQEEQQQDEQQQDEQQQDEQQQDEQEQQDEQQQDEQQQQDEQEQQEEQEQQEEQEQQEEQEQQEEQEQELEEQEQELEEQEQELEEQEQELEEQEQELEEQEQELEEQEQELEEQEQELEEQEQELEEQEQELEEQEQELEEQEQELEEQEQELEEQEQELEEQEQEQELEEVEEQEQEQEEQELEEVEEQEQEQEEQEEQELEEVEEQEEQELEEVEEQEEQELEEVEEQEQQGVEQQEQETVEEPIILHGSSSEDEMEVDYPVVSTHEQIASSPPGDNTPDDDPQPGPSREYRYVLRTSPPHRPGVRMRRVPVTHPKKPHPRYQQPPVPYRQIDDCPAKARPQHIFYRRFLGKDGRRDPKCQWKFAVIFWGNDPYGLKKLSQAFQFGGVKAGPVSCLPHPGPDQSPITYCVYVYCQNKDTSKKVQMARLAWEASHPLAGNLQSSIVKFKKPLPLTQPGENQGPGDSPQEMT
# RanGTP-Imp inh: disruptors of Ran-importin-beta complex formation – biochemical, FRET, CFP-Ran, YFP-importin-beta, homogeneous, primary screen. inhibition, % (test concentration not listed). cell-free CFP-Ran/YFP-importin-beta FRET ratio. AID 2216. actives 1.1% (n = 300,000);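 active means most replicates above 15%; inconclusive means exactly half above 15%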;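 further: 0% = DMSO wells and 100% = Ran loaded with GDP instead of GTP; wells of about 40 µL received 100 nL stock; the first replicate is given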
# B2AR ag: activates human beta-2 adrenergic receptor causing internalization; P07550; Am2.2-beta2AR cells, FAP receptor internalization, flow cytometry; reference of the scale not given here; response, % (no concentration beside the values); actives 0.43% (n = 340,000); AID 504454;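 active means response above a set limit, near 3 SD of response in nonfluorescent compounds, cut at about 42% in these data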;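 further: stock transfer was 100 nL into about 11 µL; a reference agonist was the positive control; negative values mostly stem from fluorescent compounds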
# Calb FLC: affects C. albicans growth with fluconazole; actives 0.57% (n = 300,000); growth inhibition, % (concentration not given with the values); AID 1979; C. albicans CaCi-2 (fluconazole-resistant clinical isolate) + fluconazole, Alamar Blue growth, 48 h;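 active means most replicates above 75%; inconclusive means exactly half above 75%; inactive means most below 75%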;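 further: all wells also contain fluconazole at 8 µg/ml as a sub-toxic cotreatment; 0% = median of DMSO wells and 100% = median of geldanamycin control wells; wells of about 8 µL received 7.5 nL stock; the first replicate is given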
# HNF4A DNA FP: change in binding of human HNF4 alpha to DNA; P41235; HNF4a-FITC DNA binding, fluorescence polarization, 1 h; activity change, % at 10 µM; actives 0.3% (n = 360,000); AID 1224865; in the data active means activity change above about 30%, passing the limit was not always enough;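 further: controls were the assay level and a saturating level of protein; the project sought stronger binding though the title names inhibitors; some compounds called inactive have numbers as strong as hits; positive values seem to mean higher polarization but the record does not say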
# * hit, by the source's call; ? = inconclusive; . = no result given; & = joins results of further samples.
# Results follow in this order: Vif A3G	ALR H2O2 inh	LANA-H2A inh	RanGTP-Imp inh	B2AR ag	Calb FLC	HNF4A DNA FP
Cc1ccc(CNC(=O)c2ccc(F)c(S(=O)(=O)N3CCOCC3)c2)cc1
    -6%	.	.	.	-9	.	0.2
COc1cc(C(C)=O)ccc1OCC(=O)Nc1ccc2nc(C)sc2c1
    .	-7	1.0	.	0	.	1.8
CCOC(=O)c1ccc(CN(Cc2ccc(C)cc2)S(=O)(=O)c2cccc([N+](=O)[O-])c2)cc1
    8%	-10	5.1	-2.6	-11	6	-2.1
O=C(Nc1cccc(S(=O)(=O)Nc2ccc(Cl)cc2)c1)c1ccccn1
    -1%	1	-2.2	.	-1	.	1.3
CCC(=O)NC1(C(F)(F)F)C(=O)Nc2c1c(=O)[nH]c(=O)n2CC(C)C (configuration not stated)
    -1%	.	-1.2	3.2	0	-4	-2.9
Cc1ccc(-c2csc(Cc3nc(-c4cc5ccccc5oc4=O)cs3)n2)cc1
    ?	23	1.1	3.8	3	0	-0.1
CNC(=O)c1ccc(-c2ccc(OC)cc2)s1
    0%	40	-1.3	0.4	-5	-1	-1.8
Cc1ccc(C(=O)Nc2cccc(C(=O)O)c2)cc1
    -3%	-2	-2.1	8.5	.	7	.
COc1ccc(CCn2c(C)cc(C(=O)CSc3nnnn3-c3ccccc3)c2C)cc1OC
    2%	-13	0.6	6.2	5	-7	-1.1
O=C(NCc1ccccc1)c1ccc(S(=O)(=O)Nc2cccc(C(F)(F)F)c2)cc1
    20%	-2	3.3	2.9	17	19	-1.7
Cc1cccc(C)c1NC(=O)CSc1nnc(-c2ccco2)n1N
    0%	0	-1.0	5.4	-16	-9	0.2
COc1cccc(CNC(=O)C2CCN(S(=O)(=O)c3c(C)nn(C)c3C)CC2)c1
    3%	-1	3.5	-4.1	0	4	1.8
CC(=O)C1CCC2C3CC(O)C4=CC(=O)CCC4(C)C3C(=O)CC12C (configuration not stated)
    -3%	.	.	.	-13	.	1.1
O=C(Nc1ccccc1)N1CCc2ccccc21
    3%	-4	-2.4	-1.8	-1	-11	3.5
CC(=O)Nc1c(Cl)cc2c(c1Cl)C(=O)c1ccccc1-2
    -5%	.	.	.	-9	.	3.0
COC(=O)c1ccc(NC(=S)N2CCN(Cc3ccc(Cl)cc3)CC2)cc1
    0%	-10	0.7	-2.7	-4	-3	-1.4
Cc1ccc(N=Cc2sc(O)c3ccccc23)c(C)c1
    ?	12	-10	-0.7	2	-4	153
O=[N+]([O-])c1ccc(OCCn2cnc3ccccc32)cc1
    16%	3	-1.2	-1.0	-2	3	4.1
CC(C)=CCCC(C)CN1CCC(O)CC1 (configuration not stated)
    2%	-4	-4.5	1.6	6	-17	0.9
CCOC(=O)N1CCC(NC(=O)Cc2ccccc2)CC1
    .	-4	1.3	10	-2	4	-1.7
COc1cccc(CNC(=O)CCC(=O)N2CCOCC2)c1
    -1%	.	0.7	.	14	.	-0.7
CS(=O)(=O)N(CC(=O)NCc1ccccc1Cl)C1CCCCC1
    .	-1	3.5	-1.7	3	-11	-2.5
Cc1ccc(NC(=S)N/N=C/c2ccc(Cl)c([N+](=O)[O-])c2)cc1
    6%	1	-1.1	-0.9	-5	13	0.7
COC(=O)c1cc(Cl)c(NC(=O)Cc2ccccc2)cc1OC
    11%	.	1.1	-0.5	1	-3	6.2
CCOc1cc(-c2cc(-c3ccc(OC)cc3)nc(N)c2C#N)ccc1O
    12%	42	-3.1	-3.6	-9	6	5.6
Cc1nccn1CCC1CCCCN1C(=O)CCc1nnc(-c2ccsc2)o1 (configuration not stated)
    .	-4	-1.9	5.7	-9	8	2.8
CN1CCC2CC1c1cc(-c3ccc(C(F)(F)F)cc3)ccc12 (configuration not stated)
    -4%	.	.	.	16	.	1.6
O=C(NCC(=O)N(c1ccc(F)cc1)C(C(=O)NC1CCCC1)c1cccnc1)c1cccs1 (configuration not stated)
    .	-1	0.1	1.0	-17	-1	1.8
CCc1nnc(NC(=O)c2cc(S(=O)(=O)N3CCOCC3)ccc2N2CCCCC2)s1
    -11%	.	.	1.3	-15	-3	2.3
NC(=O)CCCc1nc(-c2ccccc2)no1
    -15%	-3	1.8	3.1	3	9	3.7
COc1cccc(C(=O)Nc2ccncc2)c1OC
    0%	-4	-5.4	-2.3	-1	9	-0.9
Cc1cccc(C)c1NC(=O)C(c1ccccc1)N1CCOCC1 (configuration not stated)
    -5%	.	3.6	?	0	10	2.9
CC1CCc2[nH]c3ccc(C(=O)N4CCCC(C(F)(F)F)C4)cc3c2C1 (configuration not stated)
    -1%	-14	-2.4	13	0	18	-3.3
O=C(Nc1cc2c3c(c1)CC(=O)N3CCC2)c1ccccc1C(F)(F)F
    0%	-12	4.8	1.9	1	-13	-1.2
CC(=O)c1cn(CC(=O)NCC2CCCO2)c2ccccc12 (configuration not stated)
    -1%	-2	-8.8	3.6	-6	-5	-1.5
CC(=O)Nc1c(O)c2ccccc2[nH]c1=O
    3%	2	-5.2	-6.9	7	-9	0.9
O=S(=O)(Nc1nc2ccccc2nc1NCC1CCCO1)c1ccccc1 (configuration not stated)
    4%	5	0.9	-1.5	-5	38	-0.4
CCN(CC)c1ccc(/C=C/c2cc(-c3ccccc3)c3ccccc3n2)cc1
    -9%	1	-5.9	-14	-874	6	99
COc1ccc(NC(=O)CC2C(=O)N(C)C(=S)N2Cc2ccco2)cc1 (configuration not stated)
    10%	-8	-12	3.4	-4	-17	-0.4
COc1ccc(OC)c(N(CC(=O)N2CCN(Cc3ccccc3)CC2)S(C)(=O)=O)c1
    -3%	-14	2.0	5.7	9	4	2.1
COc1ccc(S(=O)(=O)Nc2ccccc2C(N)=O)cc1OC
    23%	-4	-1.8	0.0	-3	-15	6.2
Cc1ccc(N(CCO)C(=S)Nc2ccccc2)cc1
    1%	.	0.2	-2.3	-3	7	-1.1
O=C1CSCC(=O)N1c1ncc(C(F)(F)F)cc1Cl
    -13%	-4	-0.9	-3.7	-2	-1	1.8
COc1cc(C2Nc3cc(C)c(C)cc3NC3=C2C(=O)CC(C)(C)C3)ccc1OC(C)=O (configuration not stated)
    0%	80*	-2.7	4.9	1	3	-2.8
COCCCNC(=O)Cn1nc(-c2cccc(OC)c2)ccc1=O
    .	-12	4.9	-3.2	-1	2	-0.5
CCc1nccn1S(=O)(=O)c1cc(OC)c(Cl)cc1OC
    22%	-11	-2.7	-2.5	3	1	0.5
Cn1c(=O)oc2cc(S(=O)(=O)Nc3cccc(F)c3)ccc21
    18%	-17	-3.7	0.3	-4	14	0.3
O=C(c1ccccc1)N1CCN(C2CC3CCC2C3)CC1 (configuration not stated)
    2%	-6	5.5	2.4	-1	3	-1.7
O=C(OCCCc1cc2ccccc2c(=O)o1)c1ccccc1C(F)(F)F
    .	5	0.3	.	-2	.	-4.5
COc1cccc(-c2nc(CS(=O)(=O)CC(=O)Nc3cccc(C(C)=O)c3)c(C)o2)c1
    -5%	-28	-4.1	2.1	1	-6	3.7
O=C(CCC1CCCC1)Nc1cccn(Cc2ccccc2Br)c1=O
    4%	-4	-12	-1.4	0	9	2.7
O=C(/C=N/NC(=O)c1ccc(Cl)cc1Cl)c1ccccc1
    7%	-5	0.0	-1.8	19	-5	-3.0
COc1ccccc1/C=C(/C(=O)OCC(=O)Nc1ccccc1C(C)C)c1ccccc1
    -3%	14	1.4	.	7	.	6.8
COC(=O)c1ccc(C2=NOC(C)(c3nnc(Cc4ccccc4)o3)C2)cc1 (configuration not stated)
    .	.	-1.9	4.5	-1	23	1.7
Cc1ccc(S(=O)(=O)N2CCN(C(=O)c3ccccn3)CC2)cc1
    ?	-14	4.7	-13	9	-1	-1.4
Cc1ccccc1C(=O)Nc1ccnn1C1CCN(Cc2ccccn2)CC1
    .	-2	0.9	10	-3	-5	-0.7
Cc1cccc(NC(=O)CSc2nnnn2C)n1
    -3%	-2	2.2	-0.9	-2	-4	-2.5
Cc1ccc(C)c(OC(=O)c2cccnc2Cl)c1C
    2%	-1	-3.9	2.0	9	-10	3.1
COc1ccc(/C=C/C(=O)NC(=S)N2CCN(c3ccccc3OC)CC2)cc1
    .	49	2.7	-1.3	-6	-7	0.0
COC(=O)C1CCN(C(=O)/C=C/c2ccc(OC)cc2)CC1
    ?	-13	4.7	1.6	6	4	-1.0

# New compounds follow
# Results follow in this order: Vif A3G	ALR H2O2 inh	LANA-H2A inh	RanGTP-Imp inh	B2AR ag	Calb FLC	HNF4A DNA FP
COCCN(C(=O)c1csnn1)C(C(=O)NC1CCCC1)c1ccccc1 (configuration not stated)
    -1%	-2	-3.6	4.5	-1	1	3.5
CC1CCN(C(=O)CSc2nnc(-c3ccncc3)n2C)CC1
    9%	-15	5.5	2.6	3	-7	-1.5
COc1ccccc1NC(=O)CSc1nnc(CSc2nc(C)cc(C)n2)o1
    1%	-1	-0.4	0.9	-3	1	3.2
C=C(C)Cn1c(-c2ccccc2)nc2ccccc21
    9%	-7	-6.4	-2.9	7	19	0.8
O=C(CN1CCN(c2ccc(F)cc2)CC1)NC(=O)NCc1ccco1
    15%	20	-1.0	2.5	4	7	-9.3
CCc1ccc(C2C(C#N)=C(N)SC(N)=C2C#N)cc1
    4%	7	-17	39*	-18	5	140
O=c1c(Cl)c(Cl)cnn1Cc1nnc(-c2ccccc2Br)o1
    -13%	.	.	-0.6	11	-41	-3.5
Cn1c(N)c(C#N)c2c(c1=S)COC(C)(C)C2
    25%	40	8.1	-8.9	1	4	-1.9
O=C(Cc1cccs1)N1CCCC(c2nc(-c3ccc(S(=O)(=O)N4CCCC4)cc3)no2)C1 (configuration not stated)
    -5%&3%	.	14	-3.6	1	18	2.0
COC(=O)c1ccccc1NC(=O)C1CCN(C(=O)c2cc(OC)c(OC)c(OC)c2)CC1
    20%	-6	4.9	1.7	-7	2	-0.2
COc1ccc(/C=C/C(=O)N2c3ccccc3Sc3ccc(C(F)(F)F)cc32)cc1
    -5%	24	-1.3	-0.7	24	-1	-1.1
COCCn1c(SCC(N)=O)nnc1-c1c[nH]c2ccccc12
    -4%	-1	-1.9	3.6	4	-1	1.5
COc1ccc([N+](=O)[O-])cc1N(CC(=O)N1CCOCC1)S(C)(=O)=O
    4%	-5	-3.1	0.9	9	-13	1.6
O=C(CN(C1CCCCC1)S(=O)(=O)c1ccccc1)NCC1CCCO1 (configuration not stated)
    .	.	.	0.9	-5	-3	2.4
COc1cccc(C(=O)N2c3ccccc3Sc3ccccc32)c1
    6%	.	.	-1.0	-1	14	-0.5
CCC(C)c1ccccc1OCCOCCN1CCCC1 (configuration not stated)
    1%	6	0.0	-1.8	-7	-17	-0.3
O=S(=O)(Nc1ccc2cn[nH]c2c1)c1ccc(Cl)s1
    -5%	7	-1.9	0.9	0	8	-1.2
CCCCN(CC)c1nc(-c2ccncc2)nc2ccccc12
    24%	.	0.5	2.3	11	-12	-0.8
O=C(Cn1c2[n+](c3ccc(C(F)(F)F)cc31)CCCCC2)Nc1ccc(Br)cc1
    6%	-3	1.8	1.4	0	-27	2.0
Cc1ccc(-c2csc(NC(=O)c3ccc(Br)cc3)c2C(=O)O)cc1
    .	-2	-1.9	4.5	8	-2	1.6
COc1ccc(N2CN=C3SCC(=O)N3C2)cc1
    1%	3	0.8	2.5	0	7	-4.1
Cc1ccsc1/C=N/NC(=O)CNC(=O)c1ccccc1
    6%	-1	1.7	-0.6	-2	-1	1.7
COc1ccc(-c2cc3c(=O)n(CC(=O)NCCCN4CCC(N5CCCCC5)CC4)nc(C)n3n2)cc1
    .	-7	-0.1	1.8	12	-2	3.6
COc1ccc(NC(=O)c2nnn(CC(=O)Nc3ccc4c(c3)OCO4)c2N)cc1OC
    2%	-17	2.9	0.5	5	6	3.4

# Source: PubChem BioAssay
